Cruzain inh Det: qHTS Assay for Promiscuous and Specific Inhibitors of Cruzain (with detergent) | Cruzipain (Trypanosoma cruzi), P25779 | purified cruzain, Z-FR-AMC fluorescence, 0.01% Triton | Potency, µM, for inactives: max response, negative = inhibition, hits mostly inhibitors | hit rate 0.43% among 200,000; active = well fitted curve in the direction sought with a large enough effect; inconclusive = small, poorly fitted or top-dose-only effect, or another doubt; inactive = no such curve, though single readings can be large; an effect the other way counts as inactive or inconclusive;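 note: plate controls were neutral wells for no effect and buffer without enzyme for full effect; nearly all actives have a fitted effect of over 40% in size; top concentration of the series not given in the record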
Target sequence (P25779 123-467 limits assumed): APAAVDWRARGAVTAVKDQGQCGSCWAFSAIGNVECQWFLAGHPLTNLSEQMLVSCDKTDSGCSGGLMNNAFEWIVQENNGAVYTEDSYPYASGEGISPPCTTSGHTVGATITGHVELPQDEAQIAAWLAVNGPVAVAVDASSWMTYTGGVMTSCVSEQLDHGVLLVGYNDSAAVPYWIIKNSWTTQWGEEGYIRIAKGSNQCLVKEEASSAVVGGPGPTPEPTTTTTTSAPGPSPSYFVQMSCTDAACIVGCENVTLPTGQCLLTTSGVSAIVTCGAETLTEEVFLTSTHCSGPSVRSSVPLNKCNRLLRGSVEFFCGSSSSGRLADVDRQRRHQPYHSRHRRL
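Compounds were screened in titration against cruzain (1.5 nM) with 0.01% Triton X-100 to counter colloidal aggregation. Activity was the AMC fluorescence increase over 60 s after adding 2 uM Z-FR-AMC at pH 5.5.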
Marburg entry inh: qHTS for inhibitors of binding or entry into cells for Marburg Virus; Potency, µM (top dose mostly 37.8 µM), for inactives: at the top dose activity change, negative = inhibition, usual class: inhibitors; hit rate 1.8% among 300,000; Marburg virus pseudotyped entry inhibition, cell reporter; control for the full effect not named in the record; about a third of the inactives were read at about 46 µM; active = well fitted inhibition curve with a large enough effect; inconclusive = small, poorly fitted or top-dose-only effect, or effect the other way; inactive = flat fitted curve, though single readings scatter; tested in HEK293 cells; about a fifth of its hits are not listed in these tables; note: % is set by controls: 0 for no effect and ±100 for the full control effect; luciferase read-out
Lassa entry inh: qHTS for Inhibitors of binding or entry into cells for Lassa Virus; Potency, µM (highest dose often 37.9 µM), for the others: top-dose activity change, negative = inhibition, actives largely listed as inhibitors; Lassa virus pseudotype entry inhibition, cell reporter; control for the full effect not named in the record; hit rate 1.2% among 300,000; AID 540256, 2011; active means well fitted inhibition curve with a large enough effect; inconclusive means small, poorly fitted or top-dose-only effect, or effect the other way; inactive means flat fitted curve, though single readings scatter; tested in HEK293 cells; note: % is set by controls: 0 for no effect and ±100 for the full control effect; nearly all actives have a fitted effect of over 50% in size; luciferase read-out
SARS PLP yeast: qHTS of Yeast-based Assay for SARS-CoV PLP; AID 485353, 2010; hit rate 0.19% among 330,000; Potency, µM (series often up to 32.9 µM), inactives show at the top dose activity, positive = growth rescue; S. cerevisiae expressing SARS-CoV PLpro, growth rescue; control for the full effect not named in the record; note: 0% is about no effect; nearly all actives have a fitted effect of over 55% in size; growth read by luminescence after 48 h
RE007 growth inh: qHTS Assay for Inhibitors of the HIV-1 protein Vpr; Potency, µM (doses to about 92.2 µM), without a hit: at the highest dose activity change, negative = less growth; S. pombe RE007 Vpr strain, BacTiter-Glo ATP luminescence, 24 h; control for the full effect not named in the record; hit rate 0.21% among 360,000; AID 651644, 2012; active = well fitted falling curve with a large enough effect; inconclusive = small, poorly fitted or top-dose-only effect; inactive = no such curve, though single readings can be large or run the other way;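 note: % is set by controls: 0 for no effect and ±100 for the full control effect; nearly all actives have a fitted effect of over 50% in size; the assay follows cell death caused by Vpr and the record does not say whether a fall means rescue or toxicity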
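Fission yeast strain RE007, carrying one chromosomally integrated HIV-1 vpr copy, was seeded at OD 0.01 in PMG+AL medium with 23 nL pinned compound. After 24 h at 30 °C and 99% humidity, viability was read by BacTiter-Glo luminescence.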
2A StopGo: High Throughput Screening for Foot and Mouth Disease Virus Antivirals; human cells with a luciferase reporter of 2A StopGo recoding; control for the full effect not named in the record; Potency, µM (top dose mostly 57.9 µM), inactives show at the highest dose signal change, negative = less light; hit rate 1.2% among 410,000; AID 1159524, 2015; active = well fitted falling curve with a large enough effect; inconclusive = small, poorly fitted or top-dose-only effect; inactive = no such curve, though single readings can be large or run the other way; tested in HEK293T cells; note: % is set by controls: 0 for no effect and ±100 for the full control effect; nearly all actives have a fitted effect of over 45% in size; luciferase light after 4 h
NS1 function inh: qHTS Assay for Inhibitors of Influenza NS1 Protein Function; S. cerevisiae slowed by influenza A NS1, growth recovery by OD600; Potency, µM (top dose mostly 46.1 µM), for the others: at the highest dose activity, positive = more growth; hit rate 0.4% among 270,000; AID 2326, 2010; note: actives are rising curves; nearly all actives have a fitted effect of over 50% in size
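Recovery from NS1-induced slow growth read by OD600 in budding yeast switched to galactose assay medium (pH 6.0, -URA) at 1:100 dilution. Compound 23 nl per well; the matching strain lacking NS1 serves as control.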
Cruzain noTriton: qHTS Assay for Promiscuous and Specific Inhibitors of Cruzain (without detergent) | purified cruzain, Z-FR-AMC fluorescence, no detergent | Potency, µM, without a hit: max response, negative = inhibition, usual class: inhibitors | hit rate 2.3% among 200,000 | AID 1476, 2009; active = well fitted curve in the direction sought with a large enough effect; inconclusive = small, poorly fitted or top-dose-only effect, or another doubt; inactive = no such curve, though single readings can be large; an effect the other way counts as inactive or inconclusive;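 note: plate controls were enzyme without inhibitor for no effect and buffer without enzyme for full effect; nearly all actives have a fitted effect of over 40% in size; top concentration of the series not given in the record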
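Purified cruzain at 1.5 nM, pre-incubated 15 min with compound at room temperature in 100 mM sodium acetate pH 5.5, 5 mM DTT, 0.00005% Triton X-100. Reaction started with 2 uM Z-FR-AMC; AMC fluorescence increase over 60 s gives rate.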
Numbers without * were called inactive; ? = inconclusive; . = no result given; & = joins results of further samples; [ ] = another dose, or the depositor's remark. Unless noted, calls come from the whole dose curve; as a rule, active means well fitted rising curve with a large enough effect; inconclusive means small, poorly fitted or top-dose-only effect; inactive means no such curve, though single readings can be large or run the other way. Potency is the fitted concentration of half-maximal effect.

SMILES	Cruzain inh Det	Marburg entry inh	Lassa entry inh	SARS PLP yeast	RE007 growth inh	2A StopGo	NS1 function inh	Cruzain noTriton
COc1ccc(NC(=O)c2cc(=O)c3ccccc3o2)cc1Cl	.	?	9%	6%	3%	12%	3%	.
CC1CCN(S(=O)(=O)c2ccc(S(=O)(=O)NCc3ccco3)cc2)CC1	0.7%	4%	-3%	-4%	-14%	.	4%	0%
O=C(CCn1cccc1)N1CCc2ccccc21	3.4%	5%	?	-2%	?	35%[activator]	-7%	0%
CCCCC1(CC(=O)OCC)C(=O)N(c2ccccc2)N(c2ccccc2)C1=O	-4.6%	-18%	?	-18%	-8%	-18%	-18%	13%
CC12CCC(=O)N1C(C(=O)Nc1ccc(F)c(Cl)c1)CS2 (stereo not given)	.	-6%	5%	-2%	-18%	?	.	.
O=C(CSc1nc2ccccc2c(=O)n1-c1ccc(F)cc1F)c1c[nH]c2ccccc12	-1.0%	6%	?	-30%	-5%	-30%	14%	?
CC1OC(OC2C(O)CC(OC3C(O)CC(OC4CCC5(C)C(CCC6C5CCC5(C)C(C7=CC(=O)OC7)C(O)CC65O)C4)OC3C)OC2C)CC(O)C1O (stereo not given)	.	?	0.32µM*	.	-15%	?	.	.
Cc1ccc2[nH]c(=O)c3cc(C(=O)N(C)Cc4ccco4)sc3c2c1	-9.0%	.	.	?	3%	16%	-49%	?
CSc1ccccc1NC(=O)C1CC(c2ccccc2Cl)=NO1 (stereo not given)	.	?	?	-8%	4%	36%[activator]	5%	.
COc1ccc(NC(=O)c2ccccc2Cl)c(NC(=O)c2ccco2)c1	.	?	24%	23%	18%	17%	3%	.
C/C(=N/OC(=O)c1c(F)cccc1F)c1nccs1	11%	1%	7%	-12%	-12%	-16%	-24%	5%
CCOc1ccc(-c2cc(C(=O)N3CCN(c4cc(Cl)ccc4C)CC3)c3ccccc3n2)cc1	0.2%	.	?	.	.	8%	.	-3%
O=C(CS(=O)(=O)c1ccccc1Cl)N1CCOCC1	.	1%[46.1 µM]	-1%[46.1 µM]	1%	10%	-4%	2%	.
COc1ccc(CNC(=O)C(CC(C)C)NS(=O)(=O)c2ccc3c(c2)CCN3C(C)=O)cc1 (stereo not given)	-2.3%	-4%[46.1 µM]	-14%[46.1 µM]	.	.	-7%	.	0%
COc1ccc(OCc2cc(C(=O)NCC3(C)COC3)no2)c(Cl)c1	.	13%	?	-2%	-2%	-15%	-2%	.
CC(OC(=O)c1cccs1)C(=O)NCc1ccccc1 (stereo not given)	0.5%	3%	18%	7%	0%	17%	-9%	-4%
Cc1ccc(NC(=O)COc2ccc(/C=N/NC(=O)CSCc3ccccc3)cc2)cc1	-6.6%	-27%	14%	0%	16%	?	21%	-9%
Cc1ccc(C2CC(C(F)F)n3ncc(C(=O)Nc4c(C)nn(Cc5c(F)cccc5Cl)c4C)c3N2)cc1 (stereo not given)	-6.9%	-21%	-11%	4%	12%	?	?	?
CC1=NN(c2ccccc2)C(=O)/C1=C\N(O)c1ccccc1	.	.	.	-4%	-4%	38%[activator]	-17%	.
O=C(NC1CC1)C1CCN(C2CCN(C(=O)Cc3ccc4c(c3)OCO4)CC2)CC1	.	-36%[46.1 µM]	4%[46.1 µM]	0%	-7%	-11%	4%	.
CCC(C)(C)NC(=O)CN(Cc1ccccc1Cl)C(=O)CCC(=O)Nc1cc(C)ccn1	.	-29%[46.1 µM]	-22%	1%	-5%	-5%	-1%	.
Cc1cc(NC(=O)c2noc3c2CCc2ccccc2-3)n(-c2ccccc2)n1	3.4%	.	.	-2%	5%	-22%	?	-8%
CN(C(=O)Cn1nnc(-c2cccnc2)n1)C1CCCCC1	.	.	.	1%	-1%	1%	-8%	.
Cc1ccccc1CSCc1ccc(C(=O)NCCCN2CCOCC2)o1	.	12%[46.1 µM]	18%[46.1 µM]	-3%	-3%	0%	.	.
Cc1ccc2c(c1)N(CC(=O)N1CCCCC1)C(=O)C(C)O2 (stereo not given)	.	20%[46.1 µM]	0%[46.1 µM]	12%	9%	11%	12%	.
C=C1CCC[C@]2(C)C[C@H]3OC(=O)C(CNC(CC)CO)[C@H]3CC12 (stereo not given in full)	.	-7%	-11%	1%	?	-22%	4%	.
COc1ccc(S(=O)(=O)N(C)C)cc1NC(=O)COC(=O)CC1CCCC1	.	.	.	1%	3%	-14%	-2%	.
Cc1ccc(-c2nc(SC(C)C(=O)N3CCCC3)n[nH]2)cc1 (stereo not given)	.	-6%	-22%	0%	-4%	1%	.	.
CN(CC1CCOCC1)C(=O)CC1C(=O)NCCN1C/C=C/c1ccccc1 (stereo not given)	.	1%[46.1 µM]	11%[46.1 µM]	1%	-8%	11%	0%	.
Cc1ccc(C(=O)NCc2nnc(SCC(=O)Nc3sc4c(c3C#N)CCCC4)n2C)cc1	-4.1%	13%&13%	-1%	6%	6%	-23%	-36%	16%
CCC(CC)C(=O)OCC(=O)Nc1cccc([N+](=O)[O-])c1	.	4%[46.1 µM]	?	0%	10%	28%	-4%	.
Cc1ccc(S(=O)(=O)Oc2ccccc2N2C(=O)C3C4CCC(C4)C3C2=O)cc1 (stereo not given)	.	-17%[46.1 µM]	-2%	-2%	7%	26%	-7%	.
O=C(Oc1cccc(-n2cnnn2)c1)c1ccco1	-6.7%	2%[46.1 µM]	4%	29%	-11%	-3%	-3%	-2%
COc1ccc(C(C(=O)NCC2CCCO2)N(C(=O)CNC(=O)c2ccco2)c2ccccc2)cc1OC (stereo not given)	.	16%[46.1 µM]	.	1%	14%	4%	2%	.
Cc1ccc(OCC(=O)NCCO)cc1C	0.4%	7%	22%	1%	2%	.	?	-2%
CCOC(=O)c1cnc(SSc2ncc(C(=O)OCC)c(N)n2)nc1N	.	.	.	-9%	16%	-13%	-40%	.
C=CCN1C(=O)C2(OCCCO2)c2cccc(C)c21	.	.	.	0%	-9%	-16%	4%	.
CCOC(=O)c1cc(NC(=O)c2ccc(C)cc2)c(=O)n2c1oc1ccc(Cl)cc12	2.2%	?	-13%[46.1 µM]	.	.	-1%	.	8%
COc1ccc(S(=O)(=O)N2CCC(C(=O)N3CCc4ccccc4C3)CC2)cc1OC	-0.3%	-5%	-2%	-4%	7%	0%	-4%	20%
CCCCN=C1NC(=O)C(CC(=O)Nc2ccc(Cl)cc2)S1 (stereo not given)	1.7%	-2%	?	-2%	-5%	-8%	21%	-4%
Cc1ccc(Cl)cc1N(CC(=O)NCc1ccccc1)S(C)(=O)=O	.	.	.	1%	-11%	-10%	21%	.
CC(C)CN1C(=O)c2ccc(NC(=O)C3CC3)cc2C1=O	.	16%[46.1 µM]	2%[46.1 µM]	1%	1%	18%	-2%	.
Cc1ccc(S(=O)(=O)N(C)C)cc1NC(=O)CN1C(=O)NC(Cc2ccccc2)C1=O (stereo not given)	.	14%	-2%	1%	-8%	-18%	.	.
COc1ccc(S(=O)(=O)NCC2CCCN(C(=O)c3cccs3)C2)cc1 (stereo not given)	.	-10%[46.1 µM]	-3%	-1%	7%	89%[activator]	-6%	.
CN(Cc1ccccc1F)C(=O)CCCNC(=O)c1ccc(Cl)cc1	.	7%[46.1 µM]	0%	1%	5%	-5%	-6%	.
C/C(=N\NC(=O)c1ccccc1F)c1ccc2c(c1)Nc1ccccc1S2	-1.5%	?	?	-14%	-9%	?	10%	1%
COc1ccc(NC(=O)c2ccc(OC)cc2)cc1	3.2%	?	-7%	-3%	19%	51%[activator]	?	-2%
COc1ccc(C(=O)Nc2cccnc2)cc1OC	-4.1%	19%	23%	30%	-4%	4%	0%	12%
O=C(Nc1cccc(C(=O)N2CCN(c3ccc(F)cc3)CC2)c1)c1nsc2ccccc12	-2.0%	.	?	.	.	0%	.	?
CS(=O)(=O)N(CC(=O)NCc1ccccc1)Cc1ccc(Cl)cc1	2.8%	-5%	5%	6%	-10%	-6%	-2%	6%

New compounds follow:
SMILES	Cruzain inh Det	Marburg entry inh	Lassa entry inh	SARS PLP yeast	RE007 growth inh	2A StopGo	NS1 function inh	Cruzain noTriton
O=C(CCCc1ccccc1)NCc1ccccn1	.	.	.	-7%	-4%	14%	0%	.
CC(C)Cc1nc2sc3c(c2c(=O)n1N)CC(C)(C)OC3	.	-6%	3%	0%	-2%	1%	-4%	.
CC(C)(Oc1ccc(Cl)cc1)C(=O)N(Cc1ccccc1)c1ccccn1	-6.3%	?	-14%	-33%	22%	?	-33%	9%
COc1ccc(C(=O)NNC(=O)CSc2nnc(C(C)C)n2C)cc1	.	-21%	-11%	10%	?	-3%	2%	.
Cc1cc(C(=O)NCc2ccc3c(c2)OCO3)c(C)o1	.	16%[46.1 µM]	-19%[46.1 µM]	-1%	7%	-6%	-5%	.
O=C(NCc1ccccc1)C(=O)NCC(c1ccco1)N1CCOCC1 (stereo not given)	-1.3%	20%	12%	-21%	-17%	5%	3%	?
CCN(CC)CCNC(=O)c1ccc(NC(=O)c2ccc3c(c2)CCC3)cc1	.	.	.	3%	1%	5%	-3%	.
O=C(O)c1cn[nH]c1-n1cnnn1	3.3%	22%	6%	6%	21%	12%	-3%	-3%
COCCN1C(=O)CC(NNC(=O)c2ccc(S(=O)(=O)N3CCCC3)cc2)C1=O (stereo not given)	.	18%[46.1 µM]	5%	0%	17%	-2%	.	.
Cc1cccc(C)c1N1CCN(c2n[nH]c(N)n2)CC1	.	-2%[46.1 µM]	0%	-5%	6%	-23%	-2%	.
CC(C)(C)c1ccc(C(=O)NCC(=O)OCc2cc(=O)n3nc(C4CC4)sc3n2)cc1	-1.3%	.	-5%[46.1 µM]	.	.	0%	.	-5%
Nc1c2c(nn1-c1ccc(F)cc1)CSC2	.	9%[46.1 µM]	5%	0%	2%	25%	?	.

Source: PubChem BioAssay (National Center for Advancing Translational Sciences (NCATS))

This is a random part of the collection, and some 4.7% of all compounds hit somewhere here.
